Sfp PPTase inh: inhibitors of Bacillus subtilis Sfp phosphopantetheinyl transferase; Q9F4F7; Biochemical Sfp PPTase activity, qHTS; Potency, µM, without a hit: max response, negative = inhibition, actives largely listed as inhibitors; actives 3.5% (n = 310,000); active means well fitted inhibition curve with a large enough effect; inconclusive means small, poorly fitted or top-dose-only effect, or another doubt; inactive means no such curve, though single readings can be large or run the other way;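 further: the enzyme is Sfp with the accession as filed and its product quenches rhodamine fluorescence; potency means the concentration at half of the fitted maximal effect; 0% = enzyme reaction without inhibitor and -100% = no enzyme wells; top concentration of the series not given in the record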
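After 15 min at room temperature with compound, 15 nM Sfp received 5 uM rhodamine-CoA plus 12.5 uM BHQ-2-ybbR (50 mM Hepes pH 7.6, 10 mM MgCl2). Rate came from the fluorescence difference over 30 min, ex 525/em 598 nm.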
ClpP mod: qHTS Assay for Activators of ClpP; ATP-dependent Clp protease proteolytic subunit (Bacillus subtilis (strain 168)), P80244; purified B. subtilis ClpP, FRET peptide cleavage, 20 min; Potency, µM (titrated, usually from 57.5 µM), for inactives: at the highest dose activity change, negative = active; actives 1.9% (n = 340,000); AID 651965, 2013; active = well fitted falling curve with a large enough effect; inconclusive = small, poorly fitted or top-dose-only effect; inactive = no such curve, though single readings can be large or run the other way; further: potency means the concentration at half of the fitted maximal effect; the source files actives as falling curves though it sought activators and does not explain the sign; nearly all actives have a fitted effect of over 65% in size; many hits overshoot -100%
Target sequence (P80244 whole entry, looked up): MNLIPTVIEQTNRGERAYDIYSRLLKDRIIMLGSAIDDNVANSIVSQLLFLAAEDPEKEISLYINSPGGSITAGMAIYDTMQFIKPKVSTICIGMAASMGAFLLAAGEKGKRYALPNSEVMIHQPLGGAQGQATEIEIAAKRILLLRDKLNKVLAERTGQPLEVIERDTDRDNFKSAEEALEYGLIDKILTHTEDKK
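Buffer: 100 mM Tris/HCl pH8, 100 mM KCl, 0.05% low protease BSA, 2.5% glycerol, 0.01% Tween-20. ClpP 10 microg/mL final; 20 min RT; delta FRET normalized to ADEP and DMSO controls.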
CtBP-E1A blk: blocks the CtBP interaction with E1A. AlphaScreen GST-E1A/His-CtBP binding, 1536-well; active compounds read low; control for the full effect not named in the record. activity change, % (concentration not given with the values). actives 0.49% (n = 340,000); in the data active means activity change below about -65%; inconclusive means about -30% to -65%; inactive means above about -30%; further: on the % scale 0 is the no-effect control and ±100 the full control effect
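Protein mix (5X: 125 nM each GST-E1A, His-CtBP) was incubated with pinned compound 2 h at 37 deg C in dark, in 50 mM Tris pH 8.0 buffer with 300 mM NaCl. Glutathione donor and nickel acceptor beads followed; AlphaScreen signal read after 1 h.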
TRPV1 PAM: human TRPV1 potentiation; TRPV1-expressing cells, Fluo-8 calcium influx, capsaicin EC20 potentiation; host cell line not named in the record; control for the full effect not named in the record; potentiation, % at 8.33 µM; actives 0.02% (n = 320,000); AID 540277; active means potentiation above 80%; inconclusive means 30% to 80%; inactive means below 30%; further: 0% is about no effect
Target sequence (Q8NER1 whole entry, looked up): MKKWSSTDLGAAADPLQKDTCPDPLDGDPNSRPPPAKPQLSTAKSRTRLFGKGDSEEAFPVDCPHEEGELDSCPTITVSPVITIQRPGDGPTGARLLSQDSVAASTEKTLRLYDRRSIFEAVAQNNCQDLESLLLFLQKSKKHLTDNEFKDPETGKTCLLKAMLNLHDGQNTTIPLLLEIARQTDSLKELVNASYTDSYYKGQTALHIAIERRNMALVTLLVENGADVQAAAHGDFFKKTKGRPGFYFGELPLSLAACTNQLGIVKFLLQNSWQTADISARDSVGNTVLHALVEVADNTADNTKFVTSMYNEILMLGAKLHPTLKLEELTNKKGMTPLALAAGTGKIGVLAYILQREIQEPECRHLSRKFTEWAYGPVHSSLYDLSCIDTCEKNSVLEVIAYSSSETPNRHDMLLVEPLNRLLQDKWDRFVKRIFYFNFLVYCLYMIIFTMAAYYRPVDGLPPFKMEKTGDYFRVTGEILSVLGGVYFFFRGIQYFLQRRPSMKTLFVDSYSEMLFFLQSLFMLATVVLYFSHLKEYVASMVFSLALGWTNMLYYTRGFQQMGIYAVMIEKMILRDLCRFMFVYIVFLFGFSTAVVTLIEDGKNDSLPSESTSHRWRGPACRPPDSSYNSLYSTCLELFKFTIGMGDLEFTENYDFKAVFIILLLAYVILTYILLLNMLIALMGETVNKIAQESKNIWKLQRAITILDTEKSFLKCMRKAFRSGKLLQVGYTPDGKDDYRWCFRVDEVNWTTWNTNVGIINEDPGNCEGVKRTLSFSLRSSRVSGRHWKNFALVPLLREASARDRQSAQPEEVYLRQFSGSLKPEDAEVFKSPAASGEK
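TRPV1-expressing cells were cultured overnight at 35.5C and loaded with Fluo-8 calcium dye for 40 to 90 min at room temperature. After a 10 s baseline, compound was added and calcium influx was read kinetically for 3 min (ex 480/em 520 nm).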
Menin-MLL FL inh: displaces fluorescein MLL peptide from human menin; 290,000 tested, under 10 active; FP activity change, % at 61.4 µM; Fluorescence polarization, fluorescein-MLL peptide displacement from menin; inconclusive = falling polarisation curve, or a change in total fluorescence; inactive = total fluorescence flat and polarisation flat or rising; no compound was filed as active; the % refers to the polarisation; negative = inhibition;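 further: % of control where 0% means no effect; inhibitors lower the polarisation; unlabelled MLL peptide was the positive control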
gsp agonist: agonists of gsp mutant (McCune-Albright syndrome); gsp mutant cells, cAMP HTRF, 30 min; control for the full effect not named in the record; Potency, µM (top dose mostly 76.9 µM), for inactives: at the highest dose activation (cAMP increase), most hits filed as activators; actives 0.13% (n = 340,000); AID 624287; active = well fitted activation curve with a large enough effect; inconclusive = small, poorly fitted or top-dose-only effect, or another doubt; inactive = no such curve, though single readings can be large or run the other way; cell line not stated here;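 further: phosphodiesterase inhibitor Ro 20-1724 added with compounds to block cAMP breakdown; potency means the concentration at half of the fitted maximal effect; nearly all actives have a fitted effect of over 60% in size; about a fifth of the inactives were tested at one dose only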
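Cells stably selected in G418 were plated at 2000/well, grown 16-24 hr, then given compounds in DMSO with the PDE inhibitor […] (300 uM solution added) for 30 min at 37C; cAMP was read by HTRF.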
gsp antagonist: antagonists of gsp mutant (McCune-Albright syndrome) | gsp-mutant cells, cAMP HTRF, 30 min; control for the full effect not named in the record | Potency, µM (doses to about 76.9 µM), without a hit: top-dose activity change, negative = inhibition, actives largely listed as inhibitors | actives 0.4% (n = 340,000) | AID 624288; active = falling curve of any shape with a large fitted effect; inconclusive = falling curve, mostly with a smaller effect; inactive = flat or rising curve; cell line not stated here;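 further: intracellular cAMP measured with PDE inhibitor Ro 20-1724 present during compound exposure; potency means the concentration at half of the fitted maximal effect; on the % scale 0 is the no-effect control and ±100 the full control effect; nearly all actives have a fitted effect of over 65% in size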
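G418-selected cells were plated in DMEM/10% FBS for 16-24 h at 37C, then treated with compounds plus the PDE inhibitor […] (300 uM solution added) for 30 min at 37C. Intracellular cAMP was measured by HTRF after 30 min lysis at room temperature.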
* = called active by the depositor; u = inconclusive; x = no result given; [ ] = dose if it differs, or a comment.

Compound	CtBP-E1A blk	Sfp PPTase inh	ClpP mod	gsp antagonist	TRPV1 PAM	Menin-MLL FL inh	gsp agonist
OC(COc1cccc2ccccc12)CN1CCN(c2cccc(Cl)c2)CC1 (stereo not drawn)	x	-18%	-4.6%	-1%	27	3.0	3%
Oc1ccc(/C=N/Nc2nc(N3CCCCCC3)nc(N3CCCCCC3)n2)c(O)c1	-3	21%	x	-4%	-4	-5.4	0%[15.4 µM]
O=C(O)/C=C/C(=O)Nc1ccc(OC(F)(F)F)cc1	-1	19%	-2.9%	13%	21	7.9	5%
C[C@@H]1CN([C@@H](C)CO)C(=O)CCCn2nncc2CO[C@H]1CN(C)Cc1ccc(Oc2ccccc2)cc1	-2	x	2.3%	x	x	x	-25%
Cn1c(C(=O)N2CCCCCC2)cc2c(=O)n(C)c3ccccc3c21	-4	u	-1.3%	-5%	x	2.8	-34%[inhibitor]
Cc1cnc(C(=O)N2CCCC(N3CCN(c4ccccc4C)CC3)C2)cn1 (stereo not drawn)	-6	24%	1.3%	6%	-4	x	14%[15.4 µM]
COc1ccc(OC)c(N2C(=O)C(Cl)=C(N3CCCCC3)C2=O)c1	-9	5%	-2.8%	-13%	-9	4.0	-16%
COc1ccc2oc(=N)c(C(=O)Nc3ccccc3)cc2c1	3	1%	21%	-1%[15.4 µM]	4	-3.3	u
Cc1csc(NC(=O)CCc2nc3ccccc3s2)n1	-16	u	-5.2%	2%	15	3.3	-29%
CCOC(=O)C1CCN(Cc2c(C(=O)N3CCOCC3)nc3c(C)cccn23)CC1	7	12%	-3.3%	0%	-24	x	8%[15.4 µM]
CC1Cc2ccccc2N1C(=O)CSc1nnnn1Cc1ccccc1 (stereo not drawn)	12	-4%	1.2%	-6%	-7	-0.2	0%
CCOC(=O)N1CCN(S(=O)(=O)c2ccc3c(c2)C(C)C(=O)N3)CC1 (stereo not drawn)	-2	x	-2.8%	-4%	u	x	-4%
O=C(Cn1nnc2c(sc3nc4c(c(-c5ccccc5)c32)CCC4)c1=O)c1ccccc1	-6	-24%	-0.4%	9%	28	5.5	-19%
O=C1N(c2ccccc2)C2CS(=O)(=O)CC2N1c1ccc(Cl)c(Cl)c1 (stereo not drawn)	3	6%	0.3%	-7%	-29	8.0	u
COc1ccc(-c2ccc(NC(=O)c3ccco3)cc2)nn1	-6	x	x	-11%	11	x	11%[15.4 µM]
Cc1ccc(C(=O)n2c(N)nc3ccccc32)cc1	2	10%	x	-2%	-17	1.1	-24%
CCC(Sc1ncccc1C(=O)OCCN1CCCC1=O)C(=O)NCc1ccco1 (stereo not drawn)	2	-27%	-3.6%	5%	-11	-1.6	-6%
CCOc1ccc(NC(=O)CC2C(=O)Nc3ccccc3N2C(=O)c2ccccc2)cc1 (stereo not drawn)	0	13%	x	-10%	-10	3.1	8%[15.4 µM]
COc1ccc2c(-c3ccccc3)cc(SCC(=O)NC(N)=O)nc2c1	x	3%	u	5%	5	2.4	u
COc1ccccc1NC(=O)c1c([N+](=O)[O-])c(C(C)(C)C)nn1C	-12	10%	x	-4%	3	-0.8	-3%[15.4 µM]
Cn1c(=O)n(Cc2ccccc2Cl)c(=O)c2c1[nH]c(=S)n2C	4	50µM*	x	0%	-3	-0.1	-2%[15.4 µM]
Cc1ccc(O)c(N=Nc2ccc(S(=O)(=O)N3CCOCC3)cc2)c1	u	9%	-0.4%	-3%	-3	2.3	47%[15.4 µM]
CC12CCC(C(=O)Nc3ccc(Br)cn3)(OC1=O)C2(C)C (stereo not drawn)	-7	23%	x	8%	-9	4.7	-5%[15.4 µM]
COc1ccc(-c2coc3cc4oc(=O)cc(-c5ccccc5)c4cc23)cc1F	-4	-5%	-9.2%	u	1	-0.5	9%
COC(=O)CCSCC(=O)N1N=C(c2ccc(OC)cc2)CC1c1cccc(OC)c1OC (stereo not drawn)	x	1%	-17%	-5%	-5	-4.1	5%
CC(C)C(=O)NC(c1cccc([N+](=O)[O-])c1)c1ccc2cccnc2c1O (stereo not drawn)	-2	9%	0.3%	-3%	-8	0.6	0%[15.4 µM]
CCCCN(CCCC)CC(O)COc1ccccc1C(=O)Nc1ccccc1 (stereo not drawn)	-9	-5%	-28%	1%	4	-0.4	-2%[15.4 µM]
O=C(Nc1cccc(C(F)(F)F)c1)c1cc2c(s1)-c1ccccc1OC2	8	-2%	-1.5%	7%	-7	1.9	4%[15.4 µM]
CS/C(N)=N/N=C/c1ccc([N+](=O)[O-])cc1	-8	79µM*	1.3%	-1%	3	0.4	-17%
Cn1c(=O)c2c(ncn2CCOc2cccc(Br)c2)n(C)c1=O	x	9%	-0.9%	-1%	1	0.0	26%

Looked up by compound from above:
Compound	CtBP-E1A blk	Sfp PPTase inh	ClpP mod	gsp antagonist	TRPV1 PAM	Menin-MLL FL inh	gsp agonist
Oc1ccc(/C=N/Nc2nc(N3CCCCCC3)nc(N3CCCCCC3)n2)c(O)c1	-3	21%	x	-4%	-4	-5.4	0%[15.4 µM]
CS/C(N)=N/N=C/c1ccc([N+](=O)[O-])cc1	-8	79µM*	1.3%	-1%	3	0.4	-17%

The list goes on.
Compound	CtBP-E1A blk	Sfp PPTase inh	ClpP mod	gsp antagonist	TRPV1 PAM	Menin-MLL FL inh	gsp agonist
Cc1cccc(NC(=O)Nc2ccc(C#N)cc2)n1	0	-11%	-4.2%	8%	18	-0.3	-9%
CC(=O)c1ccc(NC(=O)Nc2ccc3c(c2)nc(C)n3C)cc1	-10	9%	x	-1%	-4	-4.1	-14%[15.4 µM]
CCn1c(C)nc2cc(C(=O)N/N=C/c3ccc(O)cc3)ccc21	8	9%	-1.8%	2%	2	5.1	u
COc1ccc(NC(=O)Nc2ccc(F)cc2)c(C)c1	x	10%	2.6%	93%[activator]	8	-2.8	-10%
Cc1cc(-c2nnc(SCC(=O)c3ccc4c(c3)OCCO4)o2)no1	5	3%	x	1%	9	x	9%[15.4 µM]
CCN(CC)c1cc(C)c2cc(NC(=O)c3ccccc3OC)ccc2n1	15	13%	-7.7%	-5%	-2	4.5	23%
COc1ccc(C(=O)Nc2c(N)nc(SCC(=O)N3CCC(C)CC3)[nH]c2=O)cc1OC	-15	-7%	-3.1%	5%	x	1.9	-13%
Cc1cc(NC(=O)CSc2ccc3nnc(CCNC(=O)c4ccccc4)n3n2)no1	8	15%	-8.2%	11%	-12	2.6	u
O=C(Nc1ccc2c(c1)C(=O)NC2=O)c1cccc(C(F)(F)F)c1	0	-3%	4.2%	2%	-4	-4.1	-3%
COc1ccc(C2C(C(=O)N3CCC(C(N)=O)CC3)CC(=O)N2c2ccc(OC)cc2)cc1 (stereo not drawn)	-3	17%	-1.2%	3%	4	1.4	7%
Cc1n[nH]c(C)c1S(=O)(=O)N1CCCC(C(=O)NC2CCCCC2)C1 (stereo not drawn)	0	6%	2.1%	5%	-6	-1.3	-6%
c1ccc(NCCCNc2ccccc2)cc1	-14	2%	3.5%	8%	2	-0.8	-32%[inhibitor]
O=C(Cc1ccccc1)N1CCN(C(=O)c2cccs2)CC1	7	23%	0.6%	5%	-10	-1.3	-23%
CC[C@@]1(C(=O)OC)N[C@H](CN(C)C(=O)c2ccc(C)cc2)[C@@H]2C(=O)N(Cc3ccccc3)C(=O)[C@@H]21	0	x	-3.4%	2%	x	x	x
Cc1ccc(Oc2nnc(-c3ccccc3)c3ccccc23)cc1	1	-2%	-1.0%	u	-1	3.1	-9%
O=C(NCCS(=O)(=O)c1ccc(Cl)cc1)c1ccc(F)cc1	0	13%	x	4%	-21	3.7	-3%[15.4 µM]
CN1CCn2cnc(C(=O)NCCCCCNC(=O)OC(C)(C)C)c2C1=O	-3	x	0.3%	x	x	x	u
OCCNc1nc(OCC(F)(F)F)nc(N2CCN(C34CC5CC(CC(C5)C3)C4)CC2)n1	2	-9%	0.4%	2%	-22	-6.4	6%
COc1ccc(/C(C)=N/Nc2ccc(C(=O)O)cc2)c(OC)c1	11	1%	3.3%	4%	-3	3.3	3%[15.4 µM]
CS(=O)(=O)c1ccc(Cl)c(NC(=O)COC(=O)COc2ccc3c(c2)CCC3)c1	-14	x	x	-2%	25	x	-6%[15.4 µM]
Cn1cc(CNC(=O)Nc2ccc3c(c2)OCO3)cn1	3	18%	1.3%	9%	-2	-0.4	23%
Cn1nc(C(=O)OCC(=O)Nc2ccccc2OC(F)F)c2ccccc2c1=O	x	x	2.7%	-5%	x	x	-3%
CCOC(=O)C1(Cc2cccc(Cl)c2)CCCN(C(=O)c2cc(C)n(C)n2)C1 (stereo not drawn)	3	13%	-0.7%	-2%	-19	x	-18%
COc1ccc(NC(=O)NNS(=O)(=O)c2ccc(OC)c(OC)c2)c(OC)c1	-2	-1%	-4.7%	-15%	-4	-4.0	4%
COC(=O)c1sc(NC(=O)c2cc(-c3ccccc3)nc3ccccc23)c(C#N)c1C	-16	0.63µM*	-2.0%	u	-8	15	-13%
Cc1cc(NS(=O)(=O)c2ccc(NC(=O)CSc3nnc(-c4ccco4)n3N)cc2)nc(C)n1	-5	8%	0.4%	3%	15	4.2	-28%
Cc1cccc(-n2nc3c(c2NC(=O)CCCl)CSC3)c1	x	45µM*	-0.9%	-14%	12	-4.1	18%
